CDC25B CDK2 inh = human CDC25B-CDK2/CyclinA binding inhibition | P30305+P24941 | HTRF CDC25B-CDK2/CyclinA binding, anti-His/anti-Flag; hits give high values | z-score (no concentration beside the values) | actives 0.72% (n = 94,000);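 also: score is relative to mean and SD of negative controls; strong numbers were not always called active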
HIV TAR-Tat = HIV-1 TAR-Tat binding disruption. HIV-1 TAR RNA, Tat peptide displacement FRET; hits give high values. z-score (no concentration beside the values). actives 0.6% (n = 100,000). AID 1259389;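 also: score is relative to mean and SD of negative controls; some compounds called inactive have numbers as strong as hits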
* hit, by the source's call; / = not tested or not shown.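 The calls were made as follows: active = z-score from 3 up in half or more of its runs; inactive = the rest.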

SMILES	CDC25B CDK2 inh	HIV TAR-Tat
CCOC(=O)CSc1nc2sc3c(c2c(=O)n1C)CCc1ccccc1-3	-4	/
O=C(NCCN1CCOCC1)c1cc2nc3c(c(C(F)(F)F)n2n1)CCc1ccccc1-3	0.28	-0.28
Cc1ccc(NC(=O)CSc2nnc(C)n3c2cc2sccc23)cc1F	/	1.8
O=C1CC(c2ccco2)Cc2[nH]c(=O)c(-c3nc(-c4ccccc4)cs3)cc21 (stereo not drawn)	17*	-4.4
O=C(CCCCn1c(=O)[nH]c2ccccc2c1=O)NCCCN1CCOCC1	/	1.9
CC1CCCC(NC(=O)C2CCN(c3nnc(-n4cccc4)s3)CC2)C1C (stereo not drawn)	-0.64	0.17
c1ccc(-n2ncc3c(NC4CCCC4)ncnc32)cc1	/	0.53
Brc1ccc(OCc2nn3c(Cn4nnc5ccccc54)nnc3s2)cc1	-0.55	0.95
Cn1ccc2cc(S(=O)(=O)N3CCN(C(=O)Nc4ccc(Br)cc4)CC3)ccc21	/	1.2
C/C(=N\NC(=O)c1cc(C(C)(C)C)[nH]n1)c1ccc(Br)cc1	-3.1	/
COC(=O)c1c(SCc2ccc(F)cc2Cl)[nH]c2ccccc2c1=O	/	-0.07
CCCS(=O)(=O)c1c(S(=O)(=O)CCC)c2c(C)cccn2c1C(=O)OC	-1.8	1.8
CCC1(C)CC(=O)c2c(ccc3oc(C(=O)N4CCc5ccccc54)c(C)c23)O1 (stereo not drawn)	-2.8	1.5
N#C/C(=C1/CCCCCN1)c1nnc2n1CCCCC2	-1.6	/
CCN(CC)S(=O)(=O)c1ccc2c(c1)CC(C(=O)NC)N2C(C)=O (stereo not drawn)	/	1.8
O=C(CN1CCOCC1)Nc1c2c(nc3c1CCC3)CCC2	0.48	/
CC(C(=O)N1CCc2ccccc2C1)N1Cc2ccccc2C1=O (stereo not drawn)	/	1.2
O=S1(=O)N=CN(Cc2cccc(Br)c2)c2ccccc21	/	-0.54
O=S1(=O)C[C@H](N2CCN(c3ccccc3F)CC2)[C@@H](S(=O)(=O)c2cccs2)C1	-0.69	-1.1
CCOCCOC(=O)C1=C(C)NC2=C(C(=O)CC(C)(C)C2)C1c1ccc(CC)cc1 (stereo not drawn)	-0.34	0.37
COC(=O)C1=C(C(=O)OC)SC2(S1)C(C(=O)OC)=C(C(=O)OC)SC1=C2c2cccc(OC)c2NC1(C)C	-5	/
CC(C)c1nnc(NC(=O)CSc2nc3ccccc3[nH]2)s1	0.12	-1.1
O=C(CCSc1nc(-c2ccco2)cc(C(F)(F)F)n1)N1CCCC1	-1.1	2.5
N/C(CS(=O)(=O)c1ccc(Cl)cc1)=N\OC(=O)c1ccc(C(F)(F)F)cc1	-1.2	/
COc1ccc(C2CC(=O)N3CN(Cc4cccnc4)CSC3=C2C#N)cc1 (stereo not drawn)	-0.28	1.2
Cn1c(=O)oc2cc(S(=O)(=O)N3CCN(c4ccc(Cl)cc4)CC3)ccc21	-1.2	/
CCn1cc(C(=O)O)c(=O)c2cc(F)c(N(C)CCc3ccc(OC)c(OC)c3)cc21	-1.2	/
O=C(CSC1=NS(=O)(=O)c2ccccc2N1)Nc1ccccc1F	/	0.9
COc1cc(C(F)(F)F)nc2c(C(=O)NNC(=O)c3ccc(Cl)cc3)scc12	-0.12	/
COc1ccc(C2C3=C(CC(C)(C)CC3=O)Nc3c2ccc2ccccc32)cc1OC (stereo not drawn)	-0.11	-1
O=C(Nc1nnc2n1CCCS2)c1cccc(Cl)c1	/	1.5
CCCCOc1ccccc1/C=C1/N=C(c2cc([N+](=O)[O-])ccc2Cl)OC1=O	-0.87	/
O=C(c1noc2ncnc(N3CCOCC3)c12)N1CCCC1	/	0
O=C(CSc1nnc(-c2cccc(Cl)c2)o1)N1CCCC1	-3.4	1.8
CCOC(=O)c1cnc(SCc2nc(-c3cccc(C)c3)oc2C)nc1N	/	1.2
COc1cc(OC)cc(-n2c(=O)c3sccc3n(Cc3cc(=O)n4c(C)cccc4n3)c2=O)c1	0.2	/
O=C(CN1Cc2ccccc2C1=O)Nc1ccccn1	/	1.7
COC(=O)C1=C(C)Nc2[nH]c(=O)[nH]c(=O)c2C1c1ccc(Br)cc1 (stereo not drawn)	3.6*	1.1
CCNS(=O)(=O)c1ccc(OCC)c(-c2nc(C)no2)c1	-1.9	2.3
O=C1CCCC2=C1C(c1ccc(Cl)cc1)c1c([nH]c(=O)[nH]c1=O)N2 (stereo not drawn)	0.81	0.94
O=C(NCCSCc1cccc(C(F)(F)F)c1)N1CCSCC1	-1.3	/
CN1C(C(=O)Nc2cnn(Cc3ccc(F)cc3)c2)=CC(c2cccs2)=NS1(=O)=O	-1.1	1.6
Cc1ccc(NS(=O)(=O)c2cc(-c3cc(C)no3)ccc2C)c(C)c1	/	-0.85
CCOC(=O)CNc1c(NC2CCCCC2)c(=O)c1=O	-0.49	-0.69
NCCn1c(-c2ccccc2)nc2cccnc21	/	-0.1
O=C(CCCc1c[nH]c2ccccc12)NCCN1CCOCC1	/	1.1
Cc1ccc(/C=c2\sc3nc(-c4ccccc4)c(-c4ccccc4)n3c2=O)o1	-0.99	/
CCCCC(=O)N(c1ccc(C)c(C)c1)C1C=CS(=O)(=O)C1 (stereo not drawn)	-0.14	-0.35
CN1C(=O)C(C)(C)c2cc(S(=O)(=O)N(CCN3CCOCC3)Cc3ccco3)ccc21	/	1
Cc1cc(C)n2nc(SC/C(N)=N/O)nc2n1	-1.6	/
N#CC(C#N)C(CC(=O)c1ccccc1)c1ccccc1 (stereo not drawn)	-1.9	/
O=C(NCC(c1ccco1)S(=O)(=O)c1cccs1)c1ccc(F)cc1 (stereo not drawn)	/	0.61
CCCn1c(=O)c2c(nc3n2CCN3c2ccc(F)cc2)n(C)c1=O	/	0.88
Cc1ccc(NC(=O)N(C2CCCCC2)C(C)c2cccnc2)cc1C (stereo not drawn)	/	0.52
CCCC(=O)Nc1nn2c(-c3cccs3)nnc2s1	-1.2	2
COc1ccc(N2C(=O)CSC2=O)cc1	-1.3	1.1
Cc1ccc(NS(=O)(=O)c2cc(-c3cnc(C4CC4)o3)ccc2C)c(Cl)c1	/	0.61
O=c1[nH]c2ccccc2c2ccccc12	-0.65	/
Cc1cc(C)cc(NS(=O)(=O)c2ccc3oc(=O)c4ncn(C)c4c3c2)c1	/	-0.57
Cc1cc(N2CCN(Cc3ccccc3)CC2)n2nc(C)c(-c3ccccc3)c2n1	-0.68	0.52
(more compounds)
SMILES	CDC25B CDK2 inh	HIV TAR-Tat
O=C(Nc1ccc2nc(NS(=O)(=O)c3ccccc3)sc2c1)NC1CCCCC1	/	0.32
CCCCCCNCc1ccc(C)s1	-0.27	1.3
CN(C)c1c(F)cc(/C(N)=N/O)cc1F	-1.9	/
O=C(Nc1cc(C(F)(F)F)cc(C(F)(F)F)c1)NS(=O)(=O)c1ccc(Cl)cc1	-1.1	/
O=C(CSc1ncc(S(=O)(=O)c2ccccc2)c(=O)[nH]1)Nc1cccc(F)c1	-2.3	-1
CCc1nn(CCCC(=O)NCc2cccnc2)c(=O)c2cc3occc3n12	-1.1	-1.9
CCOc1ccc2nc(NC3=NCN(Cc4ccccc4)CN3)nc(C)c2c1	-0.31	1.7
O=P(c1ccccc1)(c1ccccc1)C(/N=C/c1ccccc1)C(F)(F)F (stereo not drawn)	-1.6	/
COc1ccc(OC2CCNCC2)cc1	-0.8	0.31
Cc1nnsc1C(=O)NCc1c(Cl)cccc1Sc1ccc(Cl)cc1	-1.7	/
CCn1c2ccccc2c2cc(N3C(=O)C4C5CCC(C5)C4C3=O)ccc21 (stereo not drawn)	-3.9	/
O=C(CSc1ccc2nnc(-c3cccc(F)c3)n2n1)N1CCc2ccccc21	-0.52	/
O=C(COC(=O)CC1(CC2=NS(=O)(=O)c3ccccc3N2)CCCC1)Nc1ccccc1F	/	0.6
O=C(c1ccc(CS(=O)(=O)c2ccc(Br)cc2)o1)N1CCN(c2ccccn2)CC1	-0.3	1.1
O=C(Nc1nc2c(s1)CCCC2)C1COc2ccccc2O1 (stereo not drawn)	0.45	-0.27
COc1ccc2c(c1)c(=O)oc1cc3occ(-c4ccc(Br)cc4)c3cc12	-1.3	1.6
O=C(Nc1ccccc1Sc1ccc(C(F)(F)F)cc1[N+](=O)[O-])C(Cl)Cl	0.98	/
O=S(=O)(c1cccc2cccnc12)N1CCN(c2ccccc2F)CC1	-0.33	/
O=C1CCc2cc(S(=O)(=O)N3CCC(Cc4ccccc4)CC3)cc3c2N1CCC3	/	0.98
O=C(O)CC(CC(=O)Nc1ccc(N2CCOCC2)cc1)c1ccccc1 (stereo not drawn)	-2.1	/
C=CCN1C(=O)/C(=C\c2ccc(OCc3ccc(Cl)c(Cl)c3)c(OC)c2)SC1=S	-6.1	/
CCCOc1ccccc1C1C(C(=O)OCC)=C(C)NC2=C1C(=O)CC(c1ccccc1)C2 (stereo not drawn)	0.52	-0.95
CCCCC(=O)Nc1nn2c(C)nnc2s1	-1.8	2
O=C(Nc1ccccc1F)c1noc2c1CCc1sccc1-2	/	0.02
NC(=O)CSc1ncc2c(n1)-c1ccccc1N(Cc1ccc(F)cc1)S2(=O)=O	/	0.25
CSC(=S)NN=C1CCCCC1	-1.1	/
CCOCCCNC(=O)C1CCCN(S(C)(=O)=O)C1 (stereo not drawn)	/	0.77
CCOC(=O)N1CCN(S(=O)(=O)c2ccc3c(c2)CCCN3C(=O)CC)CC1	1.2	0.57
O=C(c1cc(-c2ccco2)[nH]n1)N1CCN(c2ccc(N3CCOCC3)nn2)CC1	/	1.3
Cc1cc2n(n1)CCCN2C(=O)Nc1ccc(Br)c(C)c1	/	0.15
COC(=O)c1ccc(Nc2ncnc3onc(-c4cc(F)cc(F)c4)c23)cc1	/	1.3
O=C(CCn1cccc(C(F)(F)F)c1=O)Sc1ccc(Cl)cc1	-0.04	/
CC(Sc1nc2c(c(=O)[nH]1)CCC2)C(=O)Nc1ccc(F)cc1 (stereo not drawn)	0.64	-0.17
Cn1c(CSc2nc3ccccc3s2)nnc1SCC(=O)NCCO	0.17	0.49
C#CCN1C(=O)C(=O)c2cc(Br)ccc21	-2	0.09
CC(=O)N1N=C(c2cccc(Cl)c2)OC1c1ccc([N+](=O)[O-])o1 (stereo not drawn)	/	2.8
Cc1c(Cl)c([N+](=O)[O-])nn1CC(=O)Nc1ccc(S(N)(=O)=O)cc1	-3.2	/
O=C(Nc1ccc2oc(-c3cccc(F)c3)nc2c1)c1ccc([N+](=O)[O-])o1	2.5	22*
Cc1nc(-c2ccc(Cl)cc2)sc1CCNS(=O)(=O)c1cc(F)ccc1F	/	2.7
COC(=O)C1=C(C)NC2=C(C(=O)CC(c3ccccc3)C2)C1c1ccc(Br)cc1 (stereo not drawn)	-0.79	0.11
Cn1c(=O)c2c(ncn2CC(=O)Nc2nc3ccccc3s2)n(C)c1=O	-0.94	0.74
O=C1CCCc2cc(S(=O)(=O)N3CCCC(C(=O)NC4CCCCC4)C3)ccc2N1 (stereo not drawn)	/	0.78
O=C(N=Nc1c(O)n(CN2CCOCC2)c2ccccc12)c1ccncc1	-2.7	/
COc1cc(/C=C2\SC(=N)N(c3ccc4c(c3)OCO4)C2=O)ccc1OCC(=O)O	0.01	/
CCc1ccc(-c2nc(CS(=O)CC(=O)NC(C)C)c(C)o2)cc1 (stereo not drawn)	/	-0.41

17 of these compounds in a different format:
Screens in order: CDC25B CDK2 inh	HIV TAR-Tat
CSC(=S)NN=C1CCCCC1
 : -1.1	/
CCOCCCNC(=O)C1CCCN(S(C)(=O)=O)C1 (stereo not drawn)
 : /	0.77
CCOC(=O)N1CCN(S(=O)(=O)c2ccc3c(c2)CCCN3C(=O)CC)CC1
 : 1.2	0.57
O=C(c1cc(-c2ccco2)[nH]n1)N1CCN(c2ccc(N3CCOCC3)nn2)CC1
 : /	1.3
Cc1cc2n(n1)CCCN2C(=O)Nc1ccc(Br)c(C)c1
 : /	0.15
COC(=O)c1ccc(Nc2ncnc3onc(-c4cc(F)cc(F)c4)c23)cc1
 : /	1.3
O=C(CCn1cccc(C(F)(F)F)c1=O)Sc1ccc(Cl)cc1
 : -0.04	/
CC(Sc1nc2c(c(=O)[nH]1)CCC2)C(=O)Nc1ccc(F)cc1 (stereo not drawn)
 : 0.64	-0.17
Cn1c(CSc2nc3ccccc3s2)nnc1SCC(=O)NCCO
 : 0.17	0.49
C#CCN1C(=O)C(=O)c2cc(Br)ccc21
 : -2	0.09
CC(=O)N1N=C(c2cccc(Cl)c2)OC1c1ccc([N+](=O)[O-])o1 (stereo not drawn)
 : /	2.8
Cc1c(Cl)c([N+](=O)[O-])nn1CC(=O)Nc1ccc(S(N)(=O)=O)cc1
 : -3.2	/
O=C(Nc1ccc2oc(-c3cccc(F)c3)nc2c1)c1ccc([N+](=O)[O-])o1
 : 2.5	22*
Cc1nc(-c2ccc(Cl)cc2)sc1CCNS(=O)(=O)c1cc(F)ccc1F
 : /	2.7
COC(=O)C1=C(C)NC2=C(C(=O)CC(c3ccccc3)C2)C1c1ccc(Br)cc1 (stereo not drawn)
 : -0.79	0.11
Cn1c(=O)c2c(ncn2CC(=O)Nc2nc3ccccc3s2)n(C)c1=O
 : -0.94	0.74
O=C1CCCc2cc(S(=O)(=O)N3CCCC(C(=O)NC4CCCCC4)C3)ccc2N1 (stereo not drawn)
 : /	0.78

The listing continues:
SMILES	CDC25B CDK2 inh	HIV TAR-Tat
O=S(=O)(c1cccc2cccnc12)N1CCN(Cc2ccccc2)CC1	-0.15	/
Cc1ccc(-n2ncc3c(Nc4ccc5c(c4)OCCO5)ncnc32)cc1Cl	/	0.93
CCOC(=O)c1c(NC(=O)c2ccc([N+](=O)[O-])o2)sc2c1CCN(C(C)C)C2	/	-2
O=c1[nH]c2ccc(S(=O)(=O)N3CCC(O)(c4cccc(C(F)(F)F)c4)CC3)cc2o1	0.61	/
CCN1CCN(C(=O)Nc2cn(CC(C)C)c(=O)c3ccccc23)CC1	/	2
COc1cc(NS(=O)(=O)c2ccc3c(c2)CC(C)N3C(=O)C2CC2)cc(OC)c1 (stereo not drawn)	/	0.41
COc1ccc(-c2noc(-c3ccc(C)c(Cl)c3)n2)cc1	-1.6	/
O=C(c1cc(=O)n2c(nc3ccccc32)s1)N1CCN(c2ccccc2)CC1	-0.43	-2.6
CCCCn1c(=O)[nH]c2ccccc21	1.2	0.17
